# High-throughput results (PubChem)
# CDC25B-CDK2 inh = primary biochemical HTRF screen for blockers of M-phase inducer phosphatase 2 binding to CDK2/cyclin A; actives 0.72% (n = 94,000); z-score (concentration not given with the values); AID 1259370, 2018; HTRF CDC25B-CDK2/CyclinA binding, anti-His/anti-Flag; hits give high values; P30305+P24941;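 note: score is relative to mean and SD of negative controls; strong numbers were not always called active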
# HIV TAR-Tat = TAR RNA-Tat peptide displacers, HIV-1, primary screen, biochemical, FRET, FAM/TAMRA-labeled Tat; HIV-1 TAR RNA, Tat peptide displacement FRET; hits give high values; z-score (no concentration beside the values); actives 0.6% (n = 100,000); AID 1259389, 2018;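 note: score is relative to mean and SD of negative controls; some compounds called inactive have numbers as strong as hits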
# * marks the source's active call; other numbers are inactive results; / = not tested or not shown.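 Rule for the calls: active = z-score from 3 up in half or more of its runs; inactive = the rest.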
SMILES | HIV TAR-Tat | CDC25B-CDK2 inh
O=c1c2ccccc2oc2ccc(O)cc12 | 2 | /
O=C(O)C1(O)C[C@@H](O)C(O)[C@H](O)C1 (some centres not stated) | -1.3 | /
COc1ccc(NC(=O)CSc2nnc3ccc4ccccc4n23)cc1OC | 1.4 | 0.48
Cc1cc(-c2ccc(C)c(S(=O)(=O)Nc3cccc(-c4ccno4)c3)c2)on1 | -0.54 | /
Cc1cc(NC(=O)CC#N)no1 | / | -0.51
Cc1ccc(-c2nc(SCc3cc(=O)n4nc(C5CC5)sc4n3)n[nH]2)cc1 | 1.4 | /
C=CCn1c(=O)c(=O)n(Cc2ccc(C(=O)O)cc2)c2ccccc21 | 1.9 | 1.9
COc1ccccc1NC(=O)CS(=O)(=O)c1ccc2c(c1)S(=O)(=O)N=CN2 | 0.9 | /
Cc1ccc(Nc2nnns2)cc1 | 2.1 | -0.73
Cc1cn(CCC(=O)NC2Cc3ccccc3C2)c2ccccc12 | / | -0.5
O=C1CCCC2=C1C(c1ccc(F)cc1)n1nc(SCc3ccc(C(=O)O)cc3)nc1N2 (configuration not stated) | 2 | -2
CC(C)NC(=O)CCC(=O)N1CCOc2ccc(Cl)cc21 | 0.97 | -1.7
COc1ccccc1NS(=O)(=O)c1ccc(Cl)s1 | / | -1.4
Cc1ccc2cc3c(nc2c1)N(S(=O)(=O)c1ccc(F)cc1)CC3 | -5.2 | -0.57
COc1ccc(NC(=O)c2c(C(=O)O)cccc2[N+](=O)[O-])cc1 | / | -0.08
O=C1NCCN1CCN1CCS(=O)(=O)CC1 | / | -1.4
Cn1c(C(=O)Nc2ccc(Oc3ccccc3)cc2)cc2c(=O)n3ccccc3nc21 | 1.2 | /
COc1ccc(-c2cc(=O)c3ccccc3[nH]2)cc1 | 1.3 | -1.5
Fc1cccc(CN2CCN(C3CCCCC3)CC2)c1 | 1.2 | -0.37
CN1CCN(c2ncc3c(n2)CCN(Cc2cccc(Br)c2)C3)CC1 | 1.8 | /
Cc1nc2sc(C(c3cccc(Cl)c3)N3CCOCC3)c(O)n2n1 (configuration not stated) | / | -2.5
Cc1ccc(S(=O)(=O)N2CCCC2C(=O)O)cc1 (configuration not stated) | / | -1.2
O=C(O)CCCC(=O)N1CCc2cc(S(=O)(=O)N3CCCCC3)ccc21 | 1.1 | -1.4
C=Cc1ccc(Cn2nc(-c3ccc(C)c(S(=O)(=O)N4CCCC4)c3)ccc2=O)cc1 | 1.1 | 1.1
COc1ccccc1C1Nc2ccccc2NC2=C1C(=O)CC(c1ccc(Cl)cc1)C2 (configuration not stated) | 1.4 | -0.58
CS(=O)(=NS(=O)(=O)c1cccc2nonc12)c1ccccc1 (configuration not stated) | / | -2.2
COc1ccc(S(=O)(=O)N2CCCC2c2cc(C)no2)cc1 (configuration not stated) | 0.11 | /
CCN(CC)C(=O)Cc1c(C(=O)O)[nH]c2ccc(Cl)cc12 | / | -1.7
Brc1ccc(-c2ccc(CNCc3ccncc3)o2)cc1 | 0.57 | /
CCOC(=O)Nc1ccc(OC)cc1OC | / | -1.6

# Single values from the entries so far:
# HIV TAR-Tat, Cc1ccc(-c2nc(SCc3cc(=O)n4nc(C5CC5)sc4n3)n[nH]2)cc1 is entered as 1.4
# CDC25B-CDK2 inh, O=C(O)CCCC(=O)N1CCc2cc(S(=O)(=O)N3CCCCC3)ccc21 is entered as -1.4

# (listing goes on)
SMILES | HIV TAR-Tat | CDC25B-CDK2 inh
O=c1[nH]c2cc(Cl)ccc2c(-c2ccccc2)c1Sc1ncn[nH]1 | 1.4 | -0.11
Cc1nc2c(c(SCC(=O)c3ccc(O)cc3O)n1)CCC2 | 0.06 | -1.2
CCOC(=O)c1c2nc3ccccc3nc2n2c1[nH]c(=O)c1c3c(sc12)CCCC3 | / | -3.7
O=C(O)CN1C(=O)CSc2ccc(C(=O)N3CCCC3)cc21 | 1.4 | /
Cc1cc(N2CCN(C)CC2)n2nc(-c3ccccc3)nc2n1 | 1.3 | 0.96
Cc1ccc(CNS(=O)(=O)c2cc(F)ccc2CN2C(=O)c3cccnc3C2=O)o1 | -1.3 | /
Cc1cc(Br)ccc1Nc1ncnc2c1cnn2C | 1.5 | /
CCOc1cc(/C=C2\SC(=O)N(C)C2=O)ccc1OCc1cccc(C)c1 | / | -2.4
C=CCN1C(C(=O)c2ccccc2)=C(OC(=O)c2ccccc2Cl)c2ccccc2S1(=O)=O | / | -0.81
COc1ccc(Nc2nc(N3CCCCC3)nc3c2cnn3C)cc1 | 0.67 | /
O=C(CCc1nc2sc3c(c2c(=O)[nH]1)CCCCC3)N1CCN(c2ncccn2)CC1 | 2.5 | /
O=C(OCCCN=C1NS(=O)(=O)c2ccccc21)c1cccs1 | 1.9 | -0.57
O=C(CSc1nnc(NC2=NS(=O)(=O)c3ccccc32)s1)N1CCOCC1 | 0.77 | 0.66
CC(C)C(NS(=O)(=O)c1ccc2c(c1)CCCC(=O)N2)C(=O)NC1CCCC1 (configuration not stated) | 0.34 | /
Cc1cc(-c2ccc(C)c(S(=O)(=O)N(C)CCCc3ccco3)c2)on1 | 1.2 | /
Cn1c(=O)c2c(nc(NC(CO)CO)n2Cc2ccc(Br)cc2)n(C)c1=O | -0.26 | -0.41
O=C(N1CCSCC1)C12CC3CC(CC(C3)C1)C2 | / | 0.11
Cc1[nH]c2ccccc2c1C(=O)C(=O)NCC1COc2ccccc2O1 (configuration not stated) | -1.3 | -0.81
COC(=O)CC/C(=N/Nc1ccc([N+](=O)[O-])cc1[N+](=O)[O-])c1ccc(C)cc1 | / | -2.4
CCOC(=O)CSCc1c(C)c(C)c(C)c(C)c1C | / | -2.7
Fc1ccc(CSc2nnnn2-c2cccc(Cl)c2)cc1 | 0.46 | -0.03
O=C(Nc1nnc(Cc2cccs2)s1)C(=O)c1c[nH]c2ccccc12 | -0.01 | -0.92
CCN1C(=O)C2(c3ccccc31)c1c(oc3cc(C)c(C)cc3c1=O)C(=O)N2CCCOC (configuration not stated) | 2.6 | -2.5
O=c1nc(Nc2cccc(Cl)c2)cc2n1CCc1sccc1-2 | -2.9 | -1.9
COc1cc(Br)c(C2CC(=O)NC(C)=C2C(=O)OCC2CCCCC2)cc1OC (configuration not stated) | 2 | 1.4
COC(=O)c1c(C)oc2ccc(NS(=O)(=O)c3ccc(Br)cc3)cc12 | -0.86 | -1.9
CC1=NC(=O)CN1c1ccc(N)cc1 | -1.6 | -1.9
CCCc1c(-c2ccc(O)cc2)nn(-c2ccc(O)cc2)c1-c1ccc(O)cc1 | / | -2.6
O=C1CCCC2=C1C(c1ccncc1)n1nc(SCc3ccccc3Cl)nc1N2 (configuration not stated) | / | 0.29
Cc1ccc(SCC(=O)OCc2cc(=O)n3nc(C(C)C)sc3n2)cc1 | 0.12 | /

# The final 5 entries of the part before are carried over, then new ones follow:
SMILES | HIV TAR-Tat | CDC25B-CDK2 inh
COC(=O)c1c(C)oc2ccc(NS(=O)(=O)c3ccc(Br)cc3)cc12 | -0.86 | -1.9
CC1=NC(=O)CN1c1ccc(N)cc1 | -1.6 | -1.9
CCCc1c(-c2ccc(O)cc2)nn(-c2ccc(O)cc2)c1-c1ccc(O)cc1 | / | -2.6
O=C1CCCC2=C1C(c1ccncc1)n1nc(SCc3ccccc3Cl)nc1N2 (configuration not stated) | / | 0.29
Cc1ccc(SCC(=O)OCc2cc(=O)n3nc(C(C)C)sc3n2)cc1 | 0.12 | /
COc1ccc(Br)cc1C1CC(=O)Nc2nc(SC)[nH]c(=O)c21 (configuration not stated) | 2.5 | -1.2
CSc1nccc(-c2ccc(S(=O)(=O)n3nc(C)c(Br)c3C)s2)n1 | / | -0.66
O=C1c2cccnc2C(=O)N1Cc1ccc(S(=O)(=O)NCc2cccnc2)cc1 | 0.35 | /
Cc1nnsc1C(=O)NCc1cc(F)cc2c1OCOC2 | / | -0.71
C=CC[n+]1ccc(/C=C2\Sc3ccccc3N2CC)cc1 | 1.5 | 1.4
Cc1c(C(=O)N(Cc2ccc(N(C)C)cc2)CC2CCCO2)oc2ccc(F)cc12 (configuration not stated) | -0.62 | 0.8
O=C(CSc1nn2c(=O)c(Cc3ccccc3)nnc2s1)Nc1ccccc1 | 0.81 | /
CC(=O)Nc1ccc(C2C(C#N)=C(N)OC3=C2C(=O)CC(C)(C)C3)cc1 (configuration not stated) | / | 0.28
COc1cc(-c2ccc(NC(=O)c3cccc(C)c3)c(OC)c2)ccc1NC(=O)c1cccc(C)c1 | / | -1.2
O=C(CCS(=O)(=O)c1ccc2c(c1)NC(=O)CS2)Nc1ccc(Cl)cc1F | 1.2 | /
Cc1csc(NC(=O)c2sc3nc4n(c(=O)c3c2C)CCCCC4)n1 | 1.1 | /
O=C(CSCc1nc2cccnc2n1C1CCCCC1)Nc1ccc(Cl)cc1 | -4.9 | /
Nc1nonc1C(=O)NCCNCc1ccsc1 | -0.73 | -0.84
Cc1nn(C)c(C)c1CNC(=O)C1=Cc2cc(Br)ccc2OC1 | 1 | /
O=C(Nc1cc(Cl)ccc1O)c1cccs1 | -0.44 | -2
CC1CCCN(C(=O)c2cc(S(=O)(=O)N3CCCCC3)c[nH]2)C1 (configuration not stated) | 2.5 | /
Cc1ccc(O)c(NC(c2nnc(-c3ccccc3)o2)c2ccccc2F)c1 (configuration not stated) | 1.2 | /
CCOC(=O)Cn1cc(Cl)c([N+](=O)[O-])n1 | 0.73 | 0.54
O=S1(=O)N=C(c2cccs2)Nc2ccc(S(=O)(=O)N3CCOCC3)cc21 | 0.33 | /
COc1ccc(C2SCCN2S(=O)(=O)c2ccc(C)cc2)cc1OC (configuration not stated) | 1.3 | -0.11
CCn1c(=O)n(CC2CCC(C(=O)NCc3ccco3)CC2)c(=O)c2sccc21 (configuration not stated) | -0.34 | /
Cc1ccn2cc(-c3ccccc3)nc2c1 | 1.7 | -0.37
O=C(CN1C(=O)c2ccccc2S1(=O)=O)N1CCN(C/C=C/c2ccccc2)CC1 | 1.9 | -0.19
Cc1ccc(CNC(=O)CCc2c(C)nn(-c3ccc(N4CCOCC4)nn3)c2C)o1 | -1.4 | /
CCCCN1C(=O)c2ccc(-c3ccco3)n2CC1(C)C(=O)NC1CCCC(C)C1C (configuration not stated) | -5.8 | /
Cc1ccc(NS(=O)(=O)c2ccc(-n3cccn3)cc2)cc1 | 2.3 | /
COc1ccc(-c2nc3cnccn3c2Nc2ccc(Cl)cc2)cc1 | 1.4 | 1.2
Cc1noc2ncnc(NCc3ccc4c(c3)OCO4)c12 | -0.71 | /
CC1(C)CC(=O)C2=C(C1)OC(N)=C(C#N)C2c1ccc(OC(=O)c2ccccc2Cl)cc1 (configuration not stated) | / | 0.03
COC(=O)Nc1nc2ccc(C(=O)c3ccc(F)cc3)cc2[nH]1 | 1.2 | /
Cc1cc(C)c(S(=O)(=O)N2CCN(c3c(C)n(-c4ccccc4)c(=O)n(C)c3=O)CC2)cc1C | 0.19 | /
Cc1ccc(S(=O)(=O)NCc2c(C)nn(C)c2C)c(C)c1 | -0.08 | /
CN1CCN(CCCNc2ncnc3onc(-c4cc(F)cc(F)c4)c23)CC1 | 0.99 | /
COc1ccc(Cc2nc3c4c5c(sc4ncn3n2)CCCCC5)cc1OC | 0.53 | -0.92
O=C(CSc1ccccn1)Nc1ccccc1Sc1nccc(C(F)(F)F)n1 | / | 1.6
COc1ccc2cc(C(=O)O)[nH]c2c1 | 0.92 | -1.6
CCN(CC)S(=O)(=O)c1ccc(Nc2ncnc3c2nc2n3CCCCC2)cc1 | -0.24 | /
O=C1NCCN1CCN1C(=O)c2ccccc2NC1c1cccs1 (configuration not stated) | / | 0
CC(=O)N1CSCC1C(=O)N1CCN(c2ccc(N3CCOCC3)nn2)CC1 (configuration not stated) | / | 0.48
COc1cccc(-c2n[nH]c3c2C(c2cccnc2)NC3=O)c1 (configuration not stated) | 2.5 | -0.54
CC(C)(C)c1nnc2sc(-c3ccncc3)nn12 | -1.7 | -0.93
C#CC[n+]1cccc2cc(O)ccc21 | / | 5.2*
O=C(c1cc2n(n1)C(C(F)(F)F)CC(c1ccco1)N2)N1CCc2ccccc2C1 (configuration not stated) | -0.14 | -1.4
COC(=O)c1cc(C)[nH]c(=O)n1 | / | -1.5
C=CCNc1nc(N)c([N+](=O)[O-])c(Nc2ccc(OC)cc2)n1 | 0.42 | /
CCN1CCCC1CNC(=O)Cn1cc2c(n1)CCC(C)C2 (configuration not stated) | / | -1.9
S=C(NCCc1ccccn1)NN1C2CSC1CS2 | / | -2.1
O=S(=O)(c1ccc(Cl)cc1)C(F)(F)C(F)C(F)(F)F (configuration not stated) | / | -0.98
CC1CCCN(CCCNS(=O)(=O)c2ccc3c(c2)NC(=O)CCS3)C1 (configuration not stated) | 0.45 | /
CCC1(C)CC(=O)c2c(ccc3oc(C(=O)NCc4ccco4)c(C)c23)O1 (configuration not stated) | 0.29 | -0.02
COc1ccc(-c2nnc3c4cc5c(cc4n(Cc4ccc(F)cc4)cc2-3)OCCO5)cc1OC | 1.7 | -0.34
COc1ccc(Nc2ncnc3onc(C)c23)c(OC)c1 | -0.91 | /
O=C(Nc1ccc(S(=O)(=O)Nc2nccs2)cc1)N1c2ccccc2Sc2ccccc21 | 0.51 | -0.98
O=C(O)CCC(=O)NCCC1=CCCCC1 | 4.3 | -0.88
O=C(Cn1cc2c(n1)CCCC2)NCc1cccnc1 | / | -2.4
O=C(CCC1CCCC1)Nc1nnc(SCc2nc3ccccc3[nH]c2=O)s1 | -0.82 | /
Cc1ccc(-c2ccc(=O)n(CC(=O)OC(C)C)n2)cc1S(=O)(=O)N1CCOCC1 | -0.97 | -1.6
O=C(Nc1cccnc1)c1cn2c3c(ccc(Cl)c3c1=O)OCC2 | 0.68 | /
Cc1cc2n(n1)C(c1ccccc1O)Nc1c(C)cccc1-2 (configuration not stated) | 0.41 | -2.9
